CSC inhib – blocks cancer stem cells; actives 1.1% (n = 300,000); cancer stem cell-like cells viability, luminescence; inhibition, % at 7.5 µM; AID 2717;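 active = mean at 75% or more and at least half the replicates too; inconclusive = mean and replicates disagree; tested in HMLE shEcad cells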;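 also: 0% = median of negative and 100% = median of positive control wells; the first replicate is given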
MT1-MMP act inh – inhibitors of human MT1-MMP activation; P50281; HT1080 RFP-PRO-GFP cells, GFP/RFP ratio fluorescence, overnight; percent of plate control window, DMSO zero; GFP/RFP ratio change, % at 20 µM; actives 0.061% (n = 360,000);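 active = GFP/RFP ratio change of at least 30% with cell ATP level not reduced by more than half and red fluorescence within 50% of control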; also: strong numbers were not always called active
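Assay system: HT1080 RFP-PRO-GFP cells | Dosing: 20 µM single dose, 1% DMSO | Incubation: Cells overnight before dosing, compound overnight, 37 °C, 5% CO2 | Evaluation: GFP/RFP fluorescence ratio | Control set: DMSO-only wells and HT1080 RFP-L50D-GFP cell wells as references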
HIV Env fusion – inhibitors of HIV Env-mediated cell fusion; actives 1.1% (n = 360,000); inhibition, % at 12.3 µM; HeLa-JRFL Env/CEM21 cell fusion, luciferase; AID 651610;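 active = mean replicate inhibition score of at least 50 and every replicate individually at or above 50; inconclusive = only one of the two criteria met; inactive = mean below 50 and not all replicates reaching 50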;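 also: 0% = plate neutral controls and 100% = maraviroc near 300 nM; one replicate is shown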
Rce1 inh – blocks yeast Ras-converting enzyme | yeast membranes, quenched prenylated peptide cleavage fluorescence | actives 0.27% (n = 290,000) | AID 2563 | Q03530 | calls only;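 active = fall in fluorescence gain of 50% or more versus controls, with final raw signal at or below 3038400; inconclusive = same 50% fall but final raw signal above 3038400; inactive = fall in fluorescence gain under 50%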;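 also: plate controls were neutral control wells for no effect and wells lacking membranes for full effect; tested at 10 µM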
UUG fidelity – yeast start codon fidelity modulation | S. cerevisiae UUG-firefly luciferase reporter, luminescence/redox ratio | activity score, % at 18.7 µM | actives 0.13% (n = 350,000) | AID 602363;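 active = replicate mean at a twofold rise or more, about +100% in these data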;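 also: firefly luciferase made from a UUG start codon reports start codon fidelity; reporter light over untreated wells divided by growth signal over untreated wells; some hits fall short of that in this replicate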
eIF4H FP inh – inhibitors of RNA binding by human eIF4H. eIF4H fluorescence polarization binding assay. inhibition, % at 35 µM. actives 0.94% (n = 290,000);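 active = 50% or more with normal probe brightness, or confirmed in later tests; inconclusive = above 50% with abnormal brightness, or retests that disagree; inactive = below 50% or failed in later tests; about a fifth of its hits are not listed in these tables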;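 also: calls also rest on retests at 20 µM and on dose response follow-up; 0% = protein and probe with vehicle and 100% = probe without protein; strong numbers were not always called active; many hits fall short of the cut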
PABP polyA inh – PABP-poly(A) binding inhibition. P11940. PABP-poly(A) RNA binding, fluorescence polarization. inhibition, % at 35 µM. actives 1% (n = 290,000). AID 2014;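 active = 50% or more with normal probe brightness, or confirmed in later tests; inconclusive = above 50% with abnormal brightness, or retests that disagree; inactive = below 50% or failed in later tests; about a fifth of its hits are not listed in these tables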;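 also: calls also rest on retests at 20 µM and on dose response follow-up; controls were probe without protein and protein plus probe with vehicle; some compounds called inactive have numbers as strong as hits; many hits fall short of the cut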
Target sequence (P11940 whole entry, looked up): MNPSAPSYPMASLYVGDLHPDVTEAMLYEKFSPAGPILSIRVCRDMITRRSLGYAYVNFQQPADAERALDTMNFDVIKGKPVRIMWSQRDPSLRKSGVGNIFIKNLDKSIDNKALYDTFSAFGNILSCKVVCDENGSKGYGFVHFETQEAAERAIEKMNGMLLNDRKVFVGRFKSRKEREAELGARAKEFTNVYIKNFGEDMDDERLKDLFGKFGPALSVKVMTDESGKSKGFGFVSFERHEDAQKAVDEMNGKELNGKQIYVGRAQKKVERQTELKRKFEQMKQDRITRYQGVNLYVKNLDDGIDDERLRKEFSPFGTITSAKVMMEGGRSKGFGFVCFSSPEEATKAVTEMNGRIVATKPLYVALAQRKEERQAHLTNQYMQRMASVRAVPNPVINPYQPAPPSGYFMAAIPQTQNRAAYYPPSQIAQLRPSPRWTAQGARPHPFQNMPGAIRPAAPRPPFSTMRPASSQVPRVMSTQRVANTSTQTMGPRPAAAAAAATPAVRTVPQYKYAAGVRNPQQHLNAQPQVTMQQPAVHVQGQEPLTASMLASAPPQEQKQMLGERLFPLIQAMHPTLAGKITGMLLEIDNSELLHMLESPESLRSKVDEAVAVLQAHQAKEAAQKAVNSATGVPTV
eIF4H FP inh retest – further read-out of eIF4H FP inh, marked with its call; inhibition, %; compound at 20 µM; confirmation average;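 mean of two retest wells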
PABP polyA inh retest – second read-out of PABP polyA inh, no call of its own (marks repeat the call); inhibition, %; compound at 20 µM; confirmation repeats;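 mean of two retest wells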
MT1-MMP act inh RFP – recorded beside MT1-MMP act inh, whose call it bears; RFP signal change, %; measured here: RFP expression control read;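 0 = vehicle wells; hits needed this value within 50% of zero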
* = called active by the depositor; i = inactive; ? = inconclusive; . = not tested or not shown. Not all compounds are listed; the hit share may differ from the screen's.

SMILES	CSC inhib	MT1-MMP act inh	MT1-MMP act inh RFP	HIV Env fusion	Rce1 inh	UUG fidelity	eIF4H FP inh	PABP polyA inh	others
CC(=O)NC1C(c2nc3ccccc3s2)=C(c2ccccc2)C(=O)N1c1ccc(C)cc1 (stereo unspecified)	.	-10	-2	-61	i	5	0	6
Cc1ccc(OCCN(C)C(=O)c2cc(COc3ccc(F)cc3F)on2)cc1	-2	-1	3	17	i	-10	-3	-4
CC(C)CCn1c(=O)c2ccccc2n2c(CN3CCOCC3)nnc12	-14	5	-2	-1	i	.	-4	-1
COc1ccc(/C=C2\SC(=O)N(CC(=O)Nc3cccnc3)C2=O)cc1OC	11	0	1	-3	i	-17	2	-2
CCOC(=O)C1C(=O)NC(C(=O)OCC)(C(=O)OCC)C1C(C)CC (stereo unspecified)	.	6	0	-5	.	-4	.	.
CC(=O)c1ccc([C@@H]2C[C@]34CN(Cc5cccc(C(F)(F)F)c5)S(=O)(=O)[C@H]3C[C@H]2O4)cc1	25	4	-6	31	i	-6	-7	16
S=c1nc(-c2ccccc2Cl)[nH][nH]1	-8	4	-1	3	i	-7	-7	-5
COc1cc(OC)c2c(-c3cccc(-c4ccc(OC(F)(F)F)cc4)c3)cc(=O)oc2c1	.	-2	-6	9	.	-17	.	.
Cc1ccc(S(=O)(=O)NCCCCCC(=O)N(C)C)cc1	-4	2	5	-22	i	6	-7	2
CCCCn1nnnc1SCC(=O)N1CCCC1	-5	2	3	-46	i	-13	-16	3
CC(C)Cc1nnc(NC(=O)CCC(=O)N2CCN(c3ccc([N+](=O)[O-])cc3)CC2)s1	-19	-1	-23	33	i	-6	-9	3
Cc1nc2ccccc2n1CCN1CCOCC1	-15	-2	2	9	i	0	-3	7
COC(=O)c1c(NC(=O)c2cccc(S(=O)(=O)N3CCN(C)CC3)c2)sc(C)c1C	57	1	4	2	i	-12	.	.
Cc1ccc2nc(-c3ccccc3C)oc(=O)c2c1	-10	-1	2	-8	i	-13	1	-6
COc1cc2[nH]c(=S)nc(NCc3cccc(Cl)c3)c2cc1OC	22	2	-3	18	i	-16	-3	-8
CC1CC(C)CN(c2ccc(NS(=O)(=O)c3ccccc3)cc2C(=O)O)C1 (stereo unspecified)	-1	1	8	-18	i	2	3	2
O=C(Cn1cnc2c(OCc3ccccc3)ncnc21)N1CCN(c2ccccn2)CC1	.	2	4	-22	.	-7	.	.
CN(C)C(=O)c1ccc(NC(=O)CN2CCc3cc4c(cc3C2)OCCCO4)cc1	-4	1	1	-4	i	-1	4	0
CCOc1ccc(C(=O)N(CN2CCCC2=O)c2cccc(Cl)c2)cc1	-2	-5	-2	9	i	.	5	0
O=C(c1nc2ncccn2n1)N1CCc2ccccc2C1	-4	3	3	.	i	-13	-5	-3
Cc1nnc(SCC(=O)Nc2ccccc2)n(N)c1=O	.	15	11	8	i	.	-10	-7
CSc1nc(SCC(=O)NCc2ccco2)c2c3c(sc2n1)CN(C)CC3	12	-3	-1	.	i	-8	.	.
CCCN(CCC)C(=O)CCS(=O)(=O)c1cccc2nsnc12	18	0	8	-58	i	4	6	4
O=C(CN1CCN(c2ccccc2O)CC1)Nc1ccc([N+](=O)[O-])cc1Br	15	-4	-5	5	i	3	7	2
COc1ccccc1CNS(=O)(=O)c1c(C)[nH]c(=O)[nH]c1=O	.	-1	0	.	i	-6	-12	-1
COc1ccc2c(=O)c3ccccc3oc2c1	-4	-5	-3	.	i	-6	-6	-9
NC(=O)NC(=O)CSc1nc(-c2ccccc2)c(-c2ccccc2)n1CC1CCCO1 (stereo unspecified)	.	0	-2	.	i	0	-1	5
Cc1cccc(C(=O)N/C(=C/c2ccco2)C(=O)N2CCCCCC2)c1	-6	-5	7	9	i	18	-9	4
O=C(O)Cn1cc(/C=c2/sc3nc4ccccc4n3c2=O)c2ccccc21	0	-17	4	-48	i	.	7	20
CC1(C)Cc2c(cnn2-c2ccc(F)cc2)C(NC(=O)CCC(F)(F)F)C1 (stereo unspecified)	9	1	-1	-4	i	-11	-11	3
CCOC(=O)N1CCC(NC(=O)c2cc(C(=O)Nc3cccc(OC)c3)ccc2CO)CC1	31	2	1	.	i	11	-7	-4
C1=C(N2CCOCC2)/C(=C/c2nc3ccccc3[nH]2)CC1	-14	-27	8	.	i	-15	?	?
Cc1noc(C)c1COc1ccccc1C(=O)Nc1cccc(S(=O)(=O)N(C)C)c1	-6	2	0	-9	i	3	.	.
Brc1ccccc1-c1nnc(CSc2nnnn2-c2ccccc2)o1	18	2	0	.	i	-14	-6	13
COc1cccc(CNC(=O)CCC2CCCN(Cc3cc(Cl)ccc3O)C2)c1 (stereo unspecified)	-4	1	3	6	i	-9	6	0
CCOC(=O)c1c(C)[nH]c(C(C)=NNC(=O)c2cccs2)c1C	-5	4	0	.	.	-17	.	.
CN(C(=O)CCNC(=O)Cn1ccc2ccccc2c1=O)c1ccc(Br)cc1	-9	-2	1	6	i	-8	2	6
C[C@H]1CN=C(N(C)C)N1CCCC1CCCC1	17	2	0	-7	.	-20	.	.
CCc1nc2c(OCc3ccc(C(=O)N(C)C)cc3)cccn2c1N(C)C(=O)Nc1ccccc1OC	.	-3	-1	1	.	-17	.	.
C/C(N)=C(/C#N)C(=O)COC(=O)c1cccc(C)c1O	-15	-3	-1	-2	i	-26	-4	11
CN(C)CCN(C(=O)C1CCN(S(=O)(=O)c2cccs2)CC1)c1nc2c(F)cccc2s1	.	2	8	-1	i	-16	.	.
COc1ccc(CC(=O)N(CC2CCCO2)c2nc3ccccc3s2)cc1 (stereo unspecified)	-4	0	-3	.	i	-8	0	6
CCNC(=O)CCc1nc(-c2ccc(C(C)(C)C)cc2)no1	17	21	-2	.	i	-19	-6	-6
COc1cccc(C(C)(O)c2nc(-c3ccc(F)c(Cl)c3)cs2)c1 (stereo unspecified)	.	-4	-3	8	.	-16	.	.
CCCCCCNC(=O)CSc1nccn1Cc1ccccc1	-6	-2	2	.	i	-10	-4	-2
Cc1c(NC(=O)CCSCCc2ccccn2)cccc1[N+](=O)[O-]	5	2	3	17	i	-10	-1	2
Cc1cc(/C=C2/C(=O)NN(c3ccccc3)C2=O)c(C)n1-c1cccc(O)c1	21	2	0	-424	i	.	62*	-4	eIF4H FP inh retest=82*;PABP polyA inh retest=24
CCN1C(=O)[C@@H]2[C@H](C1=O)[C@@H]1C(=O)Nc3ccccc3C(=O)N1[C@@H]2c1cccc(OC)c1	-8	2	3	8	i	-14	.	.
N#Cc1ccccc1COC(=O)CCCC1=NS(=O)(=O)c2ccccc2N1	-6	-7	-6	0	i	-16	-7	-4
CCN(CC)S(=O)(=O)c1ccc(/C=C/C(=O)OCC(=O)Nc2cccc3ccccc23)cc1	-4	3	1	10	i	10	-6	0
CCOC(=O)c1sc(NC(=O)c2ccc(C)o2)nc1C	54	2	-4	-190	i	-24	-1	9
CCC(CO)Oc1cc(NCc2ccccc2C)c2ncn(C(C)C)c2c1 (stereo unspecified)	-12	-2	6	-5	.	-19	.	.
CC(=O)Nc1ccc(N/C=C/C(=O)C(C)(C)C)cc1	-11	-1	3	-28	i	-13	-5	9
O=C(NNC(=O)C(O)c1ccccc1)NC1CCCCC1 (stereo unspecified)	-6	1	2	7	.	-20	-6	-10
CCOC(=O)[C@@H]1[C@H]2COc3ccccc3[C@@H]2N2C(=O)N(c3ccc(OC)cc3)C(=O)[C@]12C	2	-1	3	9	i	-6	.	.
Cc1cccc(N2CCN(c3nc(C)cc(C)c3C#N)CC2C)c1 (stereo unspecified)	30	-8	-2	12	i	12	-5	9
CN(Cc1ccccc1NS(=O)(=O)c1ccc2ccccc2c1)C1CCCCC1	3	-5	-5	-9	i	-2	-4	5
COC(=O)c1ccccc1NC(=O)COc1ccc(S(=O)(=O)NC(C)C)cc1	-11	0	0	13	i	0	0	0
Cc1nc(NCc2ccc3c(c2)OCO3)c2oc3ccccc3c2n1	5	3	-2	30	i	.	-6	-4
CCCC(=O)N1CCC1(C)C(=O)NS(=O)(=O)c1cc2c(cc1C)CCCS2(=O)=O (stereo unspecified)	.	-1	4	-3	.	1	.	.
New compounds follow:
SMILES	CSC inhib	MT1-MMP act inh	MT1-MMP act inh RFP	HIV Env fusion	Rce1 inh	UUG fidelity	eIF4H FP inh	PABP polyA inh	others
O=C(CSc1nc2cc(Cl)ccc2s1)c1cc2ccccc2o1	5	-57	41	.	i	15	45*	81*	eIF4H FP inh retest=70*;PABP polyA inh retest=55*
Cc1ccc(NC(=O)CCNS(=O)(=O)c2ccc3c(c2)oc(=O)n3C)cc1	-9	5	1	14	i	2	6	0
CCN(CC)C(=S)Nc1ccc([N+](=O)[O-])cc1	1	-13	2	-25	i	-17	4	-7
Cc1ccc(NC(=O)c2onc(C)c2Cl)cc1	4	0	3	-31	i	-16	1	6
Cc1ccc(C(=O)N2CCOCC2)cc1S(=O)(=O)N1CCOCC1	-6	-2	1	3	i	-5	-17	4
CC(=O)NC(C)(c1ccccc1)c1nc(-c2cncnc2)cs1 (stereo unspecified)	.	0	5	3	.	-24	.	.
Cc1ccccc1OS(=O)(=O)c1cn(C)c(=O)n(C)c1=O	-13	-4	4	-9	i	.	-7	6
Cc1cc(C)nc(NC(=O)CSc2nn(C)c(=S)s2)n1	8	2	4	12	i	-8	17	5
COc1cc(NC(=O)NCCN2CCN(c3ccc(Cl)cc3)CC2)ccc1C	8	0	-5	.	i	1	-13	-10
O=C1N[C@@H](Cc2ccccc2)COC(=O)[C@@H](Cc2ccc(F)cc2)C/C=C\C[C@@H]1CC(=O)N(CCO)Cc1ccccc1	10	-2	-29	-38	.	-7	.	.
CCCCn1c(NCCO)nc2ccccc21	9	-1	-2	-15	i	-12	-6	9
COc1cc(-c2cc(N)n(S(=O)(=O)c3ccc(F)cc3)n2)cc(OC)c1OC	-8	11	-5	-6	i	3	8	0
CC(=O)N1CCc2c(sc(NC(=O)C3CCN(S(=O)(=O)c4cccs4)CC3)c2C(N)=O)C1	30	-11	3	-47	i	-2	.	.
O=S1c2ccccc2Nc2ccccc21	10	1	2	18	i	-9	.	.
O=C(NC(=S)Nc1ccc(S(=O)(=O)Nc2ncccn2)cc1)c1ccc(Br)cc1	5	-2	0	-8	i	.	-4	-2
COc1cccc(-c2nnc3sc(-c4ccccn4)nn23)c1	-10	-1	-4	.	i	-13	2	4
CCCc1cc(C(N)=O)c(NC(=O)c2ccoc2C)s1	1	-22	0	.	i	-5	16	28
Cn1c(SCCCC(=O)c2ccccc2)nnc1-c1ccncc1	13	4	6	-3	i	-12	6	7
C=CCn1nnnc1-c1cc(Cl)cc(Cl)c1	-7	2	5	-14	i	.	2	4
O=C1C(=Cc2ccncc2)CCCc2ccccc21	.	-6	-22	24	.	-38	.	.
O=C(NCCc1ccc(Cl)cc1)c1ccc(=O)[nH]c1	-2	1	2	-5	.	-15	-5	10
COc1cc(C(=O)NC(CCSC)C(=O)Nc2ccc(N3CCOCC3)cc2)cc(OC)c1OC (stereo unspecified)	.	4	5	-11	.	-11	.	.
COc1ccc(N2CCN(C(=O)c3ccc(COc4ccc([N+](=O)[O-])cc4)o3)CC2)cc1	.	-3	-18	40	i	4	4	10

Screening results as filed in PubChem.
